TRPV1 PAM = HTS Assay for Compounds that Act as Potentiators of the Vanilloid Receptor 1; potentiation, % at 8.33 µM; TRPV1-expressing cells, Fluo-8 calcium influx, capsaicin EC20 potentiation; host cell line not named in the record; control for the full effect not named in the record; Transient receptor potential cation channel subfamily V member 1 (Homo sapiens), Q8NER1; 0.02% of 320,000 active; active means potentiation above 80%; inconclusive means 30% to 80%; inactive means below 30%; also: 0% is about no effect
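Cells expressing TRPV1 were dye-loaded with Fluo-8 and read kinetically: 10 s baseline, 3 min after compound (agonist portion), then 2 min after EC20 capsaicin (allosteric enhancer portion). Calcium-bound dye fluorescence at 480/520 nm.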
TRPML1 agonist = qHTS for Agonists of the Human Mucolipin Transient Receptor Potential 1 (TRPML1). Mucolipin-1 (Homo sapiens), Q9GZU1. TRPML1-expressing cells, Ca2+ dye fluorescence, FDSS; host cell line not named in the record; reference of the full effect not given here. activation, % (concentration not given with the values). 0.12% of 410,000 active; in the data active = activation above about 50%; inconclusive = about 30% to 50%; inactive = below about 30%; also: 0% is about no effect; the text of the record puts the active cut at 80%
Target sequence (Q9GZU1 whole entry, looked up): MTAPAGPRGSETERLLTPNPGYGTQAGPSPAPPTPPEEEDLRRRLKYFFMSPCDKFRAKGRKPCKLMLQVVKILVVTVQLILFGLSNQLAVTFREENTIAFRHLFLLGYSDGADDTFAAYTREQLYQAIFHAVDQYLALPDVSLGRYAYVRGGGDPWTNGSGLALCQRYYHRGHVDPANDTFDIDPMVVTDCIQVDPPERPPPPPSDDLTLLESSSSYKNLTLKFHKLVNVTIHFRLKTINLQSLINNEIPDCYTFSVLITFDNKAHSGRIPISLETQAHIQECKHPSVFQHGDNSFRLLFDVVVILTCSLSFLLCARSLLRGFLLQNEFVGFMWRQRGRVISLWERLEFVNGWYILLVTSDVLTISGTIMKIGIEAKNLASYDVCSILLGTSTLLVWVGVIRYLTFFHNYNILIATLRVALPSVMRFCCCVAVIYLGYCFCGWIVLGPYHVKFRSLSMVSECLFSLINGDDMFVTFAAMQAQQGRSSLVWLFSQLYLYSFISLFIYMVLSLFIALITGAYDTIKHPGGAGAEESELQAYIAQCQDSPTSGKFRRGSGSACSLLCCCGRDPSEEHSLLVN
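Agonist activity was taken from a 110 s kinetic Ca2+ dye read on the FDSS after pinning compounds onto TRPML1-DL cells. The cells were seeded at 1,500/well with Tet inducer, incubated about 16 h, then dye-loaded at room temperature.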
ClpP mod = qHTS Assay for Activators of ClpP; ATP-dependent Clp protease proteolytic subunit (Bacillus subtilis (strain 168)), P80244; purified B. subtilis ClpP, FRET peptide cleavage, 20 min; Potency, µM (top dose mostly 57.5 µM), inactives show at the top dose activity change, negative = active; 1.9% of 340,000 active; AID 651965, 2013; active = well fitted falling curve with a large enough effect; inconclusive = small, poorly fitted or top-dose-only effect; inactive = no such curve, though single readings can be large or run the other way; also: potency is read from the fitted curve at half-maximal effect; the source files actives as falling curves though it sought activators and does not explain the sign; nearly all actives have a fitted effect of over 65% in size; many hits overshoot -100%
Target sequence (P80244 whole entry, looked up): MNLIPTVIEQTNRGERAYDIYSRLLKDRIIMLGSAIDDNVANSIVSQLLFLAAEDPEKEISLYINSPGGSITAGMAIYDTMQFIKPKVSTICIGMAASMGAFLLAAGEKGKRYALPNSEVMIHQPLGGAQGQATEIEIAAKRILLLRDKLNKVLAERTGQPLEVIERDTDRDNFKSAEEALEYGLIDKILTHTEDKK
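Purified B. subtilis ClpP, 10 microg/mL final in Tris/HCl pH8 with KCl, BSA, glycerol and Tween-20, cleaved an Abz/nitrotyrosine-quenched decapeptide. Fluorescence (ex 320, em 430) was read at 0 and 20 min at room temperature. Delta was normalized to 5.8 microM ADEP and DMSO/no-enzyme controls.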
TRPML1 blocker = qHTS for Inhibitors of the Human Mucolipin Transient Receptor Potential 1 (TRPML1). Mucolipin-1 (Homo sapiens), Q9GZU1. TRPML1-inducible cells, Ca2+ dye fluorescence, FDSS; stronger effect = lower value; inhibition of EC80 agonist-evoked calcium signal. activity change, negative = inhibition, % (concentration not given with the values). 0.02% of 390,000 active. AID 624415, 2012; in the data active means activity change below about -50%; inconclusive means about -30% to -50%; inactive means above about -30%;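 also: stimulus is agonist 54-4 at its EC80 concentration; % is scaled to controls: 0 for no effect and ±100 for the full control effect; compound concentration not given in the record; the text of the record puts the active cut at -80%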
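TRPML1-DL cells, Tet-induced overnight (~16 h, 37 °C) at 1,500 cells/well, were loaded with Ca8 no-wash dye plus quencher for 45-90 min at room temperature. Compounds were pinned during FDSS kinetic reading; agonist 54-4 at EC80 (4 uM final) then added.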
Menin MLL FP FL = qHTS Assay for Inhibitors Targeting the Menin-MLL Interaction in MLL Related Leukemias: Competition With Fluorescein Labeled MLL-derived Peptide | Fluorescence polarization, fluorescein-MLL peptide displacement from menin | FP activity change, % at 61.4 µM | 290,000 tested, under 10 active | AID 1766, 2009; inconclusive = falling polarisation curve, or a change in total fluorescence; inactive = total fluorescence flat and polarisation flat or rising; no compound was filed as active; the % refers to the polarisation; negative = inhibition;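 also: % of control where 0% means no effect; inhibitors lower the polarisation; unlabelled MLL peptide was the positive control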
Sfp PPTase inh = qHTS Assay for Inhibitors of Bacillus subtilis Sfp phosphopantetheinyl transferase (PPTase) | 4'-phosphopantetheinyl transferase ffp (Bacillus subtilis), Q9F4F7 | Biochemical Sfp PPTase activity, qHTS | Potency, µM, for inactives: max response, negative = inhibition, hits mostly inhibitors | 3.5% of 310,000 active | AID 1490, 2009; active = well fitted inhibition curve with a large enough effect; inconclusive = small, poorly fitted or top-dose-only effect, or another doubt; inactive = no such curve, though single readings can be large or run the other way;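 also: the enzyme is Sfp with the accession as filed and its product quenches rhodamine fluorescence; potency is read from the fitted curve at half-maximal effect; 0% = enzyme reaction without inhibitor and -100% = no enzyme wells; top concentration of the series not given in the record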
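With Hepes-Na pH 7.6 buffer containing 10 mM MgCl2, Sfp (15 nM) modified BHQ-2-YbbR (12.5 uM) using rhodamine-CoA (5 uM). Two reads 30 minutes apart at 525/598 nm yielded each well's rate.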
PINK1 modulator = A Quantitative High throughput Screen to Identify Chemical Modulators of PINK1 Expression | PINK1 immunofluorescence, high-content cytometry, 24 h | Potency, µM (doses to about 76.6 µM), without a hit: at the top dose activation (PINK1 increase), usual class: activators | 0.2% of 410,000 active; active = well fitted activation curve with a large enough effect; inconclusive = small, poorly fitted or top-dose-only effect; inactive = flat fitted curve, though single readings scatter; cell line not stated here;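 also: potency is read from the fitted curve at half-maximal effect; % of control where 0% means no effect; nearly all actives have a fitted effect of over 65% in size; a mitochondrial uncoupler was the plate control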
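Stable cell line, 250 cells/well, 12 h attachment; compounds pinned at 5 concentrations, 24 h; CCCP control. Fixed with nuclear dye, primary antibodies 12 h at 10 degrees C, secondary plus cell stain; laser-scanning cytometer read.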
* marks the source's active call; other numbers are inactive results; ? = inconclusive; · = no result given; [ ] = dose if it differs, or a comment.

SMILES | TRPV1 PAM | TRPML1 agonist | ClpP mod | TRPML1 blocker | Menin MLL FP FL | Sfp PPTase inh | PINK1 modulator
CC(NC(=O)CSc1nc(-c2ccccc2F)nc2cc(=O)[nH]n12)c1nc2ccccc2n1C (stereo not drawn) | · | -0.9 | ? | 2 | · | · | 4.0%
CCOC(=O)C(NC(=O)CC)(Nc1nc2c(s1)CCCC2)C(F)(F)F (stereo not drawn) | 27 | 1.0 | -2.9% | 0 | 3.5 | 10% | -1.5%
CCCC[C@@H]1C=C(C(=O)O)[C@H](c2ccc(Br)cc2)N1S(=O)(=O)c1ccc(C)cc1 | · | 0.5 | -1.1% | 3 | · | · | -2.2%
CCN(C(=O)c1ccco1)c1nc(CC(=O)Nc2ccc(Cl)cc2)cs1 | 3 | 4.1 | -0.4% | 16 | 4.1 | -1% | 4.8%[38.3 µM]
Cc1cccc(C)c1NC(=O)COc1ccccc1C(=O)Nc1ccc(Br)cn1 | 2 | -0.5 | -1.4% | 12 | 5.2 | -3% | 5.6%
COc1ccc2c(Cl)c(C(=O)NCCCn3ccnc3)sc2c1 | -17 | 0.2 | -5.1% | 23 | -2.3 | 16% | 7.4%[38.3 µM]
COc1cc(OC)cc(-c2nc3ccccc3c(=O)o2)c1 | 4 | -0.1 | -29% | 12 | -1.1 | 4% | 2.7%
CCN1CCN(S(=O)(=O)c2ccc(Cl)c(C(=O)Nc3nnc(C)s3)c2)CC1 | -8 | 0.0 | · | 8 | · | · | 2.1%
S=C(c1ccc(-c2ccc(Cl)c(Cl)c2)o1)N1CCOCC1 | -7 | 1.5 | -3.3% | 58 | -1.5 | 16µM* | ·
COc1cc(/C=C/c2noc(-c3ccccc3O)n2)ccc1OC(C)=O | -2 | -0.1 | -13% | 1 | 2.5 | 15% | 0.3%
Cc1nnc(SC(C)C#N)n1-c1ccccc1 (stereo not drawn) | -4 | 0.6 | · | -12 | -0.6 | 11% | 1.0%
CCn1c(SCC(=O)Nc2nc(-c3ccccc3)cs2)nnc1-c1ccccc1O | 3 | 1.2 | 0.2% | 10 | 3.4 | 6% | 6.9%
COc1ccc(S(=O)(=O)c2c(Nc3ccc(F)cc3)sc(C(=O)c3ccc4c(c3)OCO4)c2N)cc1 | · | 4.7 | -0.8% | -4 | · | · | -1.0%
COCCn1nnnc1C(C(C)C)N(Cc1cccnc1)Cc1ccccc1Cl (stereo not drawn) | 4 | -0.2 | -0.8% | 4 | 2.9 | -4% | -0.3%
O=C(NOCc1ccccc1)OCc1ccccc1 | · | -0.4 | -1.2% | -4 | · | · | -0.7%
COc1cccc(C2NC(=O)c3ccccc3O2)c1OC (stereo not drawn) | 2 | -0.3 | ? | 26 | 1.1 | ? | 53%[38.3 µM]
COc1ccc([C@@H]2[C@@H]3C(=O)N(C(C)(C)C)C(=O)[C@@H]3[C@]3(Cc4ccccc4)C(=O)N(c4cccc(Br)c4)C(=O)N23)cc1 | -8 | 0.9 | -0.1% | -9 | · | · | -0.2%
CN(C)S(=O)(=O)c1cc(NC(=O)CN2CCN(c3ccccc3)CC2)ccc1Cl | 16 | 2.3 | -1.1% | 15 | 10.0 | 21% | -0.9%
Cc1ccc(C(=O)C(C)OC(=O)CN2C(=O)NC3(CCCC3)C2=O)cc1C (stereo not drawn) | -1 | -0.3 | 1.1% | -7 | · | · | -0.4%
COc1ccc(Cl)cc1N(CC(=O)N1CCCC1)S(C)(=O)=O | 1 | 0.1 | · | -11 | -3.4 | 28% | -2.1%
CC1CCCN(S(=O)(=O)c2ccc(C(=O)Nc3nnc(C4=COCCO4)o3)cc2)C1 (stereo not drawn) | 3 | · | · | · | -2.0 | -10% | ·
CCn1c(C)cc(C(=O)CN2C(=O)c3ccccc3S2(=O)=O)c1C | -8 | 0.2 | -3.7% | 0 | · | · | -0.6%
Cc1ccc(C)c(NC(=O)CN(C)C(=O)c2cc([N+](=O)[O-])ccc2N2CCOCC2)c1 | -1 | 0.3 | -1.0% | 10 | · | · | -1.3%
CC12C=CC(=O)C=C1CCC1C3CCC(O)(C(=O)CO)C3(C)CC(O)C12F (stereo not drawn) | · | 0.1 | 5.3% | 45 | · | · | -4.0%
COc1ccc(CNC(=O)c2cnn(-c3ccc(OC)cc3)c2C2CCN(C(=O)OC(C)(C)C)CC2)cc1 | · | 1.3 | 2.4% | -6 | · | · | 0.6%

Further structures:
SMILES | TRPV1 PAM | TRPML1 agonist | ClpP mod | TRPML1 blocker | Menin MLL FP FL | Sfp PPTase inh | PINK1 modulator
CC(=O)Nc1ccc(NC(=O)C2CCN(c3c(Cc4ccccc4)c(C)nc4ncnn34)CC2)cc1 | · | -0.5 | -1.1% | -9 | · | · | 2.1%
N#C/C(=C\c1ccc(Cl)cc1)C(=O)Nc1cccnc1 | · | 0.4 | · | -3 | 0.3 | 22% | 2.0%
CC(C)CN1CCN=C1Nc1ccccc1 | -12 | -0.2 | 2.0% | 8 | -0.4 | 5% | 1.1%
CCOc1ccc2nc(SCC(=O)N3CCCCCC3)c(C#N)cc2c1 | -8 | 0.4 | -8.8% | 77 | 4.8 | -11% | 2.4%
O=C(NC1C2CC3CC(C2)CC1C3)C1CCCCC1 (stereo not drawn) | -32 | 0.1 | 0.6% | -10 | 1.2 | 5% | -1.1%
CCc1nc2ccc(C(=O)N3CCN(C(=O)c4ccco4)CC3)cn2c1N(C)Cc1nccs1 | · | -0.6 | -0.3% | · | · | · | -0.3%
Cc1ccc(OCC(=O)Nc2ccc3nc(SCC(=O)N(C)c4ccccc4)sc3c2)cc1 | · | 0.3 | -2.6% | 10 | · | · | 0.8%
Cc1c(/C=C(\CC(=O)O)c2nc3ccccc3s2)cc(C#N)n1C | 11 | · | -14% | · | 1.1 | ? | 0.3%
CN(C)c1ncc2nc(-c3cccc(C#N)c3)c(=O)n(C)c2n1 | · | · | · | · | -0.2 | 30%[activator] | 1.0%
CC(NS(=O)(=O)OCC(Cl)(Cl)Cl)c1ccc(C(C)(C)C)cc1 (stereo not drawn) | -9 | 6.0 | -2.6% | -22 | 0.9 | 16% | ?
COc1ccc(NC(=O)Nc2cc(C)ccc2OC(F)F)c(OC)c1 | ? | 2.1 | -0.4% | 14 | 3.1 | 3% | 5.6%
CC=Cc1cc(OC)c2c(c1)C(C)C(c1ccc(O)c(OC)c1)O2 (stereo not drawn) | · | 3.0 | 0.3% | 3 | · | · | 0.1%
Cc1ccc(-n2c(=O)c3ccc(C(=O)NCc4ccco4)cc3n(CC(=O)Nc3ccc(C)c(F)c3)c2=O)cc1 | · | 0.7 | -6.9% | 16 | · | · | 2.9%
CCOC(=O)N1CCN(C(=O)c2cccc(-n3c(=S)[nH]c4cc(Cl)ccc4c3=O)c2)CC1 | 13 | -0.4 | -0.1% | 4 | 0.2 | 4% | 9.0%[38.3 µM]
O=C(CN1C(=O)C2(SCC(=O)N2c2ccc(F)cc2)c2ccccc21)NC1CCCCC1 (stereo not drawn) | · | 1.4 | -1.3% | 0 | · | · | -4.2%
COc1ccc(-c2nc(SCc3ccc(C#N)cc3)[nH]c(=O)c2C#N)cc1 | 13 | -0.4 | -1.7% | 18 | -13 | 2% | 0.7%
O=C(COc1cccc2cccnc12)Nc1cccc(S(=O)(=O)N2CCCC2)c1 | -2 | 4.2 | -5.6% | 42 | · | · | -0.5%
Cc1cccc(C(=O)c2c(N)sc3c2CCC(C)C3)c1 (stereo not drawn) | 22 | 0.1 | 1.1% | 25 | 8.2 | ? | 6.4%
O=C(N/N=C\c1cc(Cl)ccc1O)c1ccc(S(=O)(=O)N2CCCCC2)cc1 | -11 | 6.0 | -1.8% | 2 | ? | 29% | 13%
COc1ccccc1C(=O)n1nc(-c2ccccc2)nc1NCc1ccco1 | 7 | 0.3 | 2.3% | 7 | 3.2 | 4% | 1.3%[38.3 µM]
COc1ccc(-c2cc(C)no2)cc1S(=O)(=O)N1CCN(C(=O)c2ccco2)CC1 | 3 | 0.1 | -6.6% | 10 | · | 2% | 1.6%
COc1ccc(Cn2c(=O)sc3ccccc32)cc1 | ? | 0.9 | -5.1% | 15 | 1.3 | -8% | 1.6%
CCCC(C(=O)NC1CCCC1)N(Cc1cccs1)C(=O)c1snc(C(N)=O)c1N (stereo not drawn) | ? | -0.2 | -10% | 5 | 3.6 | -12% | 4.1%[38.3 µM]
Cc1cc(=O)[nH]c(SCc2cccc(F)c2)n1 | 9 | 2.7 | 0.4% | 5 | 4.7 | 10% | -1.9%
Fc1cccc(-c2c(-c3ccccc3)ncc3cc(F)ccc23)c1 | 3 | 1.3 | ? | -8 | · | · | 14%
CCOc1ccc(NC(=O)C(c2ccccn2)N(C(=O)CCl)c2ccc(OCC)cc2)cc1 (stereo not drawn) | 4 | 1.2 | -7.6% | 14 | -1.1 | 40µM* | 7.0%
CCCCCCCCN1C(=O)[C@H](CC(=O)NCc2ccc(C)o2)C[C@@]2(C(=O)OC)CCCCC=C12 | · | -0.6 | 0.8% | · | · | · | 20%
COc1ccc(CCNC(=O)CCSCc2ccccc2F)cc1OC | -19 | 1.8 | 0.1% | 14 | 9.3 | 4% | 1.0%
CC(C)CCn1c(=O)c2sccc2n2c(CCCC(=O)NCc3ccc(F)cc3)nnc12 | · | -0.5 | -19% | -2 | · | · | 3.3%
CCOC(=O)c1cnc2ccc(C(=O)OC)cc2c1NCCCN1CCOCC1 | -11 | -0.8 | -1.8% | 20 | -13 | 17% | 1.8%

Copied from the list:
`O=C(NC1C2CC3CC(C2)CC1C3)C1CCCCC1` (stereo not drawn) in TRPML1 blocker → -10
`COc1ccc(-c2cc(C)no2)cc1S(=O)(=O)N1CCN(C(=O)c2ccco2)CC1` in Sfp PPTase inh → 2%

High-throughput results (PubChem)

Random draw from the library (roughly 4.4% active in at least one column).
